Sa growth 42C – blocks Staphylococcus aureus growth. S. aureus RN4220 growth, OD600, 20 h, 42 °C; active compounds read low. relative growth, % (concentration not given with the values). 170,000 tested, 0.53% active. AID 720641;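 active = growth at 42 °C up to 50% and 20 or more points under that at 30 °C, or under 10% at both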;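 also: 300 nL library stock went into each well; scaled to the means of positive and negative controls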
GIV-Gai inh – inhibitors of GIV GBA-motif binding to rat Galpha-i3; Galpha-i3/FITC-GIV peptide fluorescence polarization, 90 min; active compounds read low; scaled: aluminum fluoride 0%, vehicle 100%; percent of control (FP), % (concentration not given with the values); 210,000 tested, 0.42% active; AID 1224905;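 active = replicate mean at 85% of control or lower, very high polarization wells dropped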;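 also: wells of about 15 µL received 100 nL stock; the first replicate is given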
Target sequence (P08753 whole entry, looked up): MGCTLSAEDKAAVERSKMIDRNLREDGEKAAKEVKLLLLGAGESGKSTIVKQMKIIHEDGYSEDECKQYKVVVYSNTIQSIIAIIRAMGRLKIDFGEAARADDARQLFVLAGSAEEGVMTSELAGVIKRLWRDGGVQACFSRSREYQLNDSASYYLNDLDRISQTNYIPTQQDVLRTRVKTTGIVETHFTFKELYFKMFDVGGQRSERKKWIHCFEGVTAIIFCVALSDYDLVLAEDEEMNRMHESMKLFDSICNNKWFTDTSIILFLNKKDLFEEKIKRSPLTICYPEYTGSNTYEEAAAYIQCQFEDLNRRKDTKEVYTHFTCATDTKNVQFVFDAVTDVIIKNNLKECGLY
HCMV NEC inh – cytomegalovirus nuclear egress complex inhibition; HTRF UL50-UL53 interaction, normalized percent inhibition; inhibition, % (test concentration not listed); 190,000 tested, 0.15% active; AID 1918969;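 active = both replicates at 50% or more, plus weaker picks with an unusually low signal ratio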;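 also: stock transfer was 100 nL into about 20 µL; 0% = negative control wells and 100% = wells with untagged competitor protein; inactives centre near -12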
Sa growth 42C second temp – recorded beside Sa growth 42C, whose call it bears; relative growth, %; measured here: growth at 30 °C;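 optical density after 20 h as mean of two plates; 100% = untreated growth and lower means inhibition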
The depositor's hits bear a star; . = no result given; & = joins results of further samples.

no.	Molecule	Sa growth 42C	Sa growth 42C second temp
1	CCN1CCN(c2ncc(C(=O)Nc3ccccc3C(=O)OC)c3ccccc23)CC1	93	89
2	COc1ccc(-c2nnc(SCc3nnc(-c4ccccc4)o3)o2)cc1OC	112	108
3	O=C(CN1C(=O)CCSc2ccc(S(=O)(=O)N3CCCC3)cc21)Nc1cccc(Cl)c1	104	63
4	COc1ccc(C2C(C(=O)Nc3cnc4ccccc4c3)c3ccccc3C(=O)N2C)cc1 (stereo unspecified)	106	86
5	COc1ccc(-c2cc(C(F)(F)F)nc(SCC(N)=O)n2)cc1	88	82
6	CCOC(=O)N1CCc2c(sc(NCc3cccs3)c2C(=O)Nc2ccc(OC)cc2OC)C1	85	76
7	O=C(Nc1ccc(Br)cc1)c1cc(C2CC2)on1	99	91
8	Cc1ccc2c(CNCCc3ccc(Cl)cc3)c(C(=O)O)n(Cc3ccc(F)cc3)c2c1	114	54
9	N#Cc1ccc(OCC(=O)N2CCCCC2)cc1	103	96
10	CCN(CC)S(=O)(=O)c1cc(C(=O)NC2CC2)ccc1Cl	94	91
11	CCOC(=O)c1c(S(=O)(=O)N2CCCC(C(=O)Nc3ccc(C)cn3)C2)c(C)n(C)c1C (stereo unspecified)	106	85
12	O=C(Nc1nn[nH]n1)C1CCCCC1	88	89
13	O=C(O)/C=C/C(=O)Nc1ccccc1Sc1nccc(C(F)(F)F)n1	118	100
14	O=C(OCc1ccccc1)c1cnc(Sc2ccc(Cl)cc2)nc1C(F)(F)F	94	92
15	CCOC(=O)CSc1nc2ccccc2o1	90	97

no.	GIV-Gai inh	HCMV NEC inh
1	101	-7
2	101	-17
3	103	.
4	101	.
5	102	.
6	105	.
7	102	0
8	104	.
9	102	-2
10	.	-10
11	102	.
12	.	10
13	105	5
14	102	-24
15	104	.

Part of the list above, with two lines to a compound:
Under each structure – Sa growth 42C	Sa growth 42C second temp	GIV-Gai inh	HCMV NEC inh
5: COc1ccc(-c2cc(C(F)(F)F)nc(SCC(N)=O)n2)cc1
    88	82	102	.
6: CCOC(=O)N1CCc2c(sc(NCc3cccs3)c2C(=O)Nc2ccc(OC)cc2OC)C1
    85	76	105	.
7: O=C(Nc1ccc(Br)cc1)c1cc(C2CC2)on1
    99	91	102	0
8: Cc1ccc2c(CNCCc3ccc(Cl)cc3)c(C(=O)O)n(Cc3ccc(F)cc3)c2c1
    114	54	104	.

Further compounds follow.
no.	Molecule	Sa growth 42C	Sa growth 42C second temp
16	Cc1nc2ccccc2nc1CSc1nnc(-c2ccccc2)o1	91	98
17	Cn1ncc2c(N3CCN(c4ccc(F)cc4)CC3)ncnc21	113	87
18	O=C(CC(NCc1ccccc1)C(=O)O)NC1CCCCC1 (stereo unspecified)	69	114
19	NC(=O)C1CCN(C(=O)/C=C/c2cccc(Cl)c2)CC1	90	88
20	CCOC(=O)C1CCCN(C(=O)Cn2ncc3c4ccccc4n(C)c3c2=O)C1 (stereo unspecified)	87	84
21	CCC(SC1=Nc2ccccc2C2=NC(c3ccccc3)C(=O)N12)C(=O)Nc1cccc(OC)c1 (stereo unspecified)	82	87
22	Cc1ccc(-c2csc(NC(=O)C3(c4ccccc4)CC3)n2)s1	81	99
23	CC1=NN(c2ccc(C)cc2)C(=O)C1	77	49
24	CC1(N2CCOCC2)CC2(O)C(=[N+]1[O-])CCC/C2=N\O (stereo unspecified)	98	115
25	CCSc1nc(SCC)c2c3c([nH]c2n1)CCCC3	109	88
26	O=C(Nc1ccc2c(c1)OCO2)N1CCCC1c1ccccc1Cl (stereo unspecified)	.	.
27	CCN(C(=O)CCc1nc(-c2ccc(C)cc2)no1)c1cccc(Cl)c1	113	99
28	COCCn1c(C)cc(C=C2C(=O)NC(=O)NC2=O)c1C	104	92
29	COc1cc(CN(C(=O)CN2C(=O)c3ccccc3S2(=O)=O)c2ccc(Cl)cc2)ccc1O	85	79
30	O=C(Nc1ccccc1)C1CC=CCC1C(=O)OCC1CCCO1 (stereo unspecified)	80	89

no.	GIV-Gai inh	HCMV NEC inh
16	110	6
17	105	.
18	113	-1
19	.	-21
20	107	2
21	97	.
22	.	-6
23	102	-32
24	105	-6
25	101	.
26	106	6
27	101	0
28	98	-35
29	97	0
30	.	6

Record cards, from the list above.
`NC(=O)C1CCN(C(=O)/C=C/c2cccc(Cl)c2)CC1` in the list: Sa growth 42C: 90; Sa growth 42C second temp: 88; GIV-Gai inh: .; HCMV NEC inh: -21
`CC1=NN(c2ccc(C)cc2)C(=O)C1` in the list: Sa growth 42C: 77; Sa growth 42C second temp: 49; GIV-Gai inh: 102; HCMV NEC inh: -32
`CC1(N2CCOCC2)CC2(O)C(=[N+]1[O-])CCC/C2=N\O` (stereo unspecified) in the list: Sa growth 42C: 98; Sa growth 42C second temp: 115; GIV-Gai inh: 105; HCMV NEC inh: -6

Remaining list, next part.
no.	Molecule	Sa growth 42C	Sa growth 42C second temp
31	O=c1ccc(-c2cccs2)nn1Cc1ccccc1	89	75
32	Cc1n[nH]c(C)c1CC(=O)O	95	87
33	COc1ccc(N(C)C(=O)c2noc3c2COc2ccccc2-3)c(OC)c1	101	86
34	Cc1cc(N2CCCC(C(=O)O)C2)n2cnnc2n1 (stereo unspecified)	119	95
35	O=C(Nc1ccc(-c2nc3cc(NC(=O)c4ccc(Cl)cc4)ccc3o2)cc1)c1ccc(Cl)cc1	118	91
36	O=C(NCCc1c[nH]c2ccccc12)c1ccccn1	84	75
37	Cc1ccc(C)c(N2CCN(c3cnn(-c4nc5ccccc5o4)c(=O)c3Cl)CC2)c1	104	89
38	O=C1CC(c2ccccc2)CC(O)=C1C=NCC1CCCO1 (stereo unspecified)	94	91
39	Cc1oc(-c2cccc(Cl)c2)nc1CN1CCCC(C(=O)NC2CCCc3ccccc32)C1 (stereo unspecified)	98	90
40	O=C(O)c1cccc(S(=O)(=O)NCC2CCCO2)c1 (stereo unspecified)	97	98
41	CCCNc1cc(C)nc2nc(Cc3ccccc3)nn12	.	.
42	COc1cccc(NC(=O)CCN2CCN(CCO)CC2)c1	101	103
43	CCCn1c(NCc2c[nH]c3ccccc23)nc2ccccc21	76	46
44	CC1(C)C(=O)N(CC(=O)Nc2ccc(Cl)cc2)c2ccc(S(=O)(=O)N3CCCC3)cc21	.	.
45	Cc1ccc(S(=O)(=O)N(CCOc2ccccc2)c2nc3nc(C)c(Cl)c(C)n3n2)cc1	.	.

no.	GIV-Gai inh	HCMV NEC inh
31	98	-54
32	104	-16
33	100	-25
34	104	.
35	104	.
36	97	.
37	97	-3
38	102	11
39	96	.
40	107	-6
41	105	-13
42	102	24
43	98	0
44	101	-28
45	102	-12

Next section
no.	Molecule	Sa growth 42C	Sa growth 42C second temp
46	Cc1ccc(N2CCN(C(=O)c3cc4cc(Br)ccc4oc3=O)CC2)cc1Cl	107	91
47	CCC(=O)NC(O)C(=O)c1ccc(C)cc1 (stereo unspecified)	100	100
48	N#Cc1ccc(Oc2ccc(C#N)cc2)cc1	98	93
49	CCN(CC)CCOC(=O)c1ccc(NC(=O)CN2C(=O)/C(=C/c3ccccc3)SC2=S)cc1	.	.
50	CCN(CC)S(=O)(=O)c1ccc2c(c1)N(CC(=O)N1CCN(c3ccc(F)cc3)CC1)C(=O)CO2	106	85
51	CCN1CCN(C(=O)c2ccccc2F)CC1	105	104
52	CC(C)CC1CCCCC1OC(=O)C[N+]1(C)CCCCC1 (stereo unspecified)	103	83
53	Cc1nc2cc(-c3ccccc3)nn2c(C)c1CCC(=O)N1CCN(c2ccccn2)CC1	88	90
54	CCN(CC)c1cc(Nc2ccccc2OC)c([N+](=O)[O-])c2nonc12	.	.
55	CCOC(=O)c1c(C)n(-c2ccccc2)c2c1cc(OC(=O)c1ccccc1C)c1ccccc12	.	.
56	O=C(CSc1nnc(-c2ccc3c(=O)n4c(nc3c2)CCCCC4)o1)c1c[nH]c2ccccc12	83	78
57	CC(C)CCNC(=O)CCCCn1c(=O)c2ccccc2n(CC(=O)NC2CCCC2)c1=O	.	.
58	COCc1cc(C)nc2sc3c(=O)n(-c4ccccc4C)nnc3c12	.	.
59	COc1cccc2sc(N(Cc3cccnc3)C(=O)c3ccc(S(=O)(=O)N(C)C)cc3)nc12	130	100
60	CCc1ccccc1NC(=O)CN1CCN(Cc2ccccc2C)S1(=O)=O	100	93

no.	GIV-Gai inh	HCMV NEC inh
46	106	0
47	.	5
48	.	-26
49	104	-51
50	102	.
51	.	11
52	100	.
53	108&102	-4&9
54	111	2
55	104	-16
56	.	-38
57	103	-6
58	105	-24
59	99	.
60	104	-16

Next structures follow:
no.	Molecule	Sa growth 42C	Sa growth 42C second temp
61	CC(=O)Nc1c(C)nn(-c2ccccc2)c1N1CCC(C(=O)Nc2ccc(Cl)cc2C)CC1	99	96
62	CN(Cc1ccccc1)S(=O)(=O)c1cc(-c2ccc(=O)[nH]n2)ccc1Cl	.	.
63	c1csc(-c2nc3cnccn3c2NC2CCCCC2)c1	86	74
64	COc1ccc(CNC(=O)c2nc3ncccn3n2)cc1	110	100
65	COc1ccc(-c2nn(-c3ccccc3)cc2C2NC(=O)NC(C)=C2C(=O)OC(C)C)cc1OC (stereo unspecified)	107	88
66	CC(C)(C)c1ccc(OCC(=O)Nc2ccc(C(=O)OC3CCCCC3)cc2)cc1	94	86
67	O=C(NCCOc1ccccc1)c1n[nH]c(=O)c2ccccc12	109	95
68	Cc1nc2ccccc2c(=O)n1/N=C/c1cccs1	82	82
69	COC(=O)c1ccc(CN(Cc2ccc(OC)c(OC)c2)S(=O)(=O)c2cc(C(=O)Nc3cccc(C)c3)ccc2F)cc1	157	91
70	O=C(OCC(=O)C12CC3CC(CC(C3)C1)C2)c1ccc(-n2cnnn2)cc1	88	94
71	O=C(Nc1ccccc1)Nc1cc(N2CCOCC2)ncn1	107	92
72	Cc1nnc2c(N3CCN(c4ccccc4)CC3)nc3ccc(C(=O)c4ccccc4)cc3n12	105	95
73	CCCSc1nnc(NC(=O)Cc2coc3cc(C)ccc23)s1	113	92
74	Cc1ccc(C(C)C)c(OCC(=O)/C=C2\Sc3ccccc3N2C)c1	97	69
75	CNc1nc(-c2ccccc2)[n+](-c2ccccc2)s1	70	66

no.	GIV-Gai inh	HCMV NEC inh
61	104	.
62	105	-5
63	106	.
64	110	10
65	107	-44
66	104	-44
67	96	-5
68	.	-78
69	104	.
70	.	-18
71	.	-18
72	107	-7
73	106	7
74	100	.
75	.	-11

More compounds:
no.	Molecule	Sa growth 42C	Sa growth 42C second temp
76	CCOC(=O)c1cnc(N2CCN(c3cccc(C)c3C)CC2)c2ccccc12	89	96
77	CC(C)NC(=O)N1CCCC1c1ccc(F)cc1 (stereo unspecified)	.	.
78	CN(C)C(=O)CNCC1CCCO1 (stereo unspecified)	117	89
79	CCN(CC)C(=O)c1ccc(Oc2nnnn2-c2ccccc2)c(OC)c1	94	79
80	CCOC(=O)C1=CN(c2ccc(OCC)cc2)C=C(C(=O)OCC)C1c1cc(OC)c(OC)c(OC)c1	.	.
81	O=C(/C=C/c1cccs1)Nc1ccc(Br)cn1	102	89
82	CC(C)(C)C1CCC(NN2CCOCC2)CC1 (stereo unspecified)	77	59
83	c1csc(CN2CCN(c3nc(CN4CCOCC4)nc4sc5c(c34)CCC5)CC2)c1	82	88
84	O=C(CNc1ccccc1)NN=C1CCCC1	70	94
85	CCOc1ccc(/C=N/N2C(C)CCCC2C)cc1 (stereo unspecified)	98	93
86	CCC(C(=O)Nc1ccc(OC)c(OC)c1)n1c(C)c2cnn(-c3ccccc3)c(=O)c2c1C (stereo unspecified)	86	78
87	CS(=O)(=O)N1CCCC(C(=O)NC2CCCC2)C1 (stereo unspecified)	94	101
88	Cc1cc(-c2ccccc2)nc2oc3c(c12)NC(=O)CN(c1ccccc1)C3=O	113	97
89	CCCCC(=O)NCC1(N2CCOCC2)CCCCC1	.	.
90	CCCn1nnc2cc(S(=O)(=O)N3CCCC(C(=O)NCc4ccc5c(c4)OCO5)C3)ccc21 (stereo unspecified)	.	.

no.	GIV-Gai inh	HCMV NEC inh
76	103	.
77	103	-16
78	99	5
79	106	0
80	106	1
81	.	-17
82	103	-6
83	.	-4
84	.	-25
85	.	-30
86	105	.
87	102	25
88	95	4
89	94	-16
90	101	-7

New compounds follow.
no.	Molecule	Sa growth 42C	Sa growth 42C second temp
91	CCOc1ccc(CCNC(=O)c2ccc3c(c2)N(Cc2ccccc2)C(=O)c2ccccc2S3=O)cc1OCC (stereo unspecified)	108	99
92	CS(=O)(=O)N1CCc2cc(C(=O)Nc3ccc(Cl)c(C(F)(F)F)c3)ccc21	107	90
93	O=C(NCc1ccccc1Br)C1CCCN(C(=O)N2CCOc3ccccc32)C1 (stereo unspecified)	112	99
94	Cc1cc(OCC(=O)N2CCC(c3nc4ccccc4s3)CC2)ccc1Cl	72	36
95	O=C(O)CCc1ccc(-c2cccs2)n1-c1cccc(Br)c1	60	49

no.	GIV-Gai inh	HCMV NEC inh
91	100	-23
92	104	-20
93	101	-2
94	102	-25
95	105	-25

Screening data: PubChem BioAssay, ICCB-Longwood Screening Facility, Harvard Medical School
